# Source: PubChem BioAssay
# CBX7 AlphaScr: blocks human CBX7 binding to H3K27me3 peptide; O95931; AlphaScreen His6-CBX7 / biotin-H3K27me3 peptide binding; hits give low values; normalised signal (fraction of DMSO) (concentration not given with the values); hit rate 1.1% among 66,000; AID 1224903; in the data active = normalised signal below about 0.5;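 also: 100 nL library stock added to about 20 µL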
# Target sequence (O95931 whole entry, looked up): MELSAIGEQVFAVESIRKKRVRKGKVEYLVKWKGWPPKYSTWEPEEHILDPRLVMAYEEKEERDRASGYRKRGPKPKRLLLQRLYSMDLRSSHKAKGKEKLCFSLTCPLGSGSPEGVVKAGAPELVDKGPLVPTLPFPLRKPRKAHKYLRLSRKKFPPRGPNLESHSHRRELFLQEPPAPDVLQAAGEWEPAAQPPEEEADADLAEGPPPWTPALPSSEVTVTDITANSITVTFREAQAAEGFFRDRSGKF
# CBX7 AlphaScr z-score: also measured in CBX7 AlphaScr; calls as there; z-score; measured here: z-score of CBX7 signal; some inactives read as strong as hits; reference of the scale not given here;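 same signal on another scale; lower means less binding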
# Active calls of the source: *; & = joins results of further samples. An excerpt; rates above refer to the full screens.
SMILES,CBX7 AlphaScr,CBX7 AlphaScr z-score
CCCC(=O)NCCc1nc2ccccc2n1Cc1cc(C)ccc1C,0.983,-0.248
Cc1nc2nc(CC(=O)O)[nH]n2c(=O)c1Oc1ccccc1,0.954,-0.448
COc1ccc(CCC(=O)Nc2ccc(-c3noc(COc4cccc(C)c4C)n3)cc2)cc1,1.04,0.475
CCOC(=O)c1cnc2ccc(OCC)cc2c1NCc1ccccn1,1.08,0.0887
O=C(CN1N=C(c2ccccc2)CCC1=O)NCCN1CCc2ccccc2C1,1.05,0.714
O=C(CCc1nc(-c2ccccc2F)no1)NCCN1CCOCC1,1.06,1.61
O=C(NCCCN1CCCCC1)C1CC(=O)N(CCc2ccccc2)C1 (stereo not given),1.02,0.473
Cc1ccc2c(c1)-c1c(cnn1CC(=O)Nc1ccc(F)cc1)CO2,0.981,-0.476
COc1cccc(CN2C(=O)c3ccccc3Sc3ccc(C(=O)NCc4ccccc4)cc32)c1,0.832,-0.731
O=C(Nc1ccc(Cl)c(Cl)c1)N(CCCN1CCOCC1)Cc1cccnc1,1.04,0.0363
CCCCn1c(=N)n(CC(O)c2ccccc2)c2ccccc21 (stereo not given),0.981,-0.0824
CCN(Cc1ccccc1)C(=O)CCc1nc(-c2ccccc2F)no1,1.06,2.11
COc1ccc(Nc2cc(C)nc3nc(C)nn23)c(OC)c1,1.02,0.39
CCOc1ccc(-n2c(Cc3cc(=O)[nH]c(=O)[nH]3)nnc2SCC(=O)NCc2ccccc2)cc1,0.93,-1.07
CN(C)c1ccc(C(=O)N2CCNc3ccccc3C2)cc1,0.936,-1.15
CC(c1ccccc1)N1CCC(CNC(=O)Nc2ccc(Cl)c(Cl)c2)C1 (stereo not given),1.13,3.21
Cn1c(CCNC(=O)Cc2ccccc2)nc2ccccc21,0.888,-1.72
CCN1CCC(=O)N(CCN2CCCCC2)c2ccccc21,0.71,-1.36
O=C(c1cccc(F)c1F)N1CCc2c([nH]c3ccccc23)C1c1ccc2c(c1)OCO2 (stereo not given),0.809,-3.07
CC1CCN(c2nc3ccc(C(=O)N4CCCCCC4)cc3s2)CC1,1.05,0.508
COc1ccc(C(CCc2ccc(C)o2)NC(=O)Nc2ccc(OC)cc2OC)cc1 (stereo not given),0.858,-3.06
CC1(C)CC(=O)c2cnc(NC(=O)CCc3ccccc3)nc2C1,0.987&0.998,-0.365&-0.028
Cc1ccc(OCc2nc3ccccc3n2Cc2ccccc2Cl)cc1,0.965,-0.246
Cc1ccc(-n2nc3c(c2NC(=O)COc2ccc(Cl)cc2)CS(=O)(=O)C3)cc1,1.04,0.244
CCOC(=O)c1c(NC(=O)c2ccc(OC)c(OC)c2)sc2c1CCC(CC)C2 (stereo not given),1.25,10.1
# Other compounds.
SMILES,CBX7 AlphaScr,CBX7 AlphaScr z-score
CCCCCn1c(CCCNC(=O)Cc2ccccc2)nc2ccccc21,1.04,0.391
O=C(Nc1ncc(Cc2cccc3ccccc23)s1)c1ccc(Cl)cc1,0.953,-0.793
Cc1ccc(N2C(=O)c3ccccc3C2Nc2ccc(F)cc2)nc1 (stereo not given),1.01,0.432
O=C(CC1Nc2ccccc2NC1=O)Nc1ccccc1Cl (stereo not given),1,0.0687
CCOc1ccc(Nc2c3c(nc4ccc(Cl)cc24)CCCC3)cc1,1,0.00249
Cc1cccc(OCc2nnc(SCC(=O)Nc3nc(-c4ccccc4)cs3)o2)c1,0.933,-0.768
CCOC(=O)c1ccc(NC(=O)CC2C(=O)N(c3ccc(F)cc3)C(=O)N2CCC(C)C)cc1 (stereo not given),1.03,1.41
COc1ccc(-c2nc(CSCC(=O)NC(C)CCc3ccccc3)c(C)o2)cc1 (stereo not given),1.06,0.546
CCN(CC)S(=O)(=O)c1ccc2[nH]cc(C(=O)NC3CCC(C)CC3)c(=O)c2c1 (stereo not given),0.8,-2.16
CCOC(=O)c1ccc(Nc2nc3nonc3nc2N2CCC(Cc3ccccc3)CC2)cc1,0.807,-2.28
O=S(=O)(Nc1nc2ccccc2nc1Nc1ccccc1)c1ccc(Cl)cc1,1.13,2.34
O=C(Cn1nc(-c2ccc(Cl)cc2)ccc1=O)NCCc1ccccc1,1.02,1.06
CC(C)c1ccc(Nc2cc(C(=O)NC3CC3)c3ccccc3n2)cc1,1.07,1.08
Cc1cc(Cl)cc(Cl)c1OCC(=O)Nc1cccc(-c2nc3ncccc3o2)c1,0.921,-0.657
C=CCn1c(SCc2cccnc2)nc2cc(C(=O)NCC3CCCO3)ccc2c1=O (stereo not given),1.03,0.398
CCN(CC)c1nc(-c2ccccc2O)nc2ccccc12,1.05,0.0577
Cc1ccc(-c2nc3cc(Cl)ccc3o2)cc1NC(=O)c1ccccc1,1.21,1.8
O=C(Nc1ccc(F)c(Cl)c1)c1cc(-c2cccs2)on1,1,0.051
Cc1ccc(CCN2C(=O)CCC2(C)C(=O)NC2CCCC2)cc1 (stereo not given),1.06,1.03
COc1ccccc1NC(=O)Cn1cnc2sc(C(=O)Nc3c(F)cccc3F)c(C)c2c1=O,1.36,3.52
COc1ccc(-c2noc(N(C)CC(=O)Nc3ccc(OC)cc3OC)n2)cc1,0.971,-0.981
CCc1ccc(NC(=O)CN2C(=O)c3ccccc3Sc3ccc(C(=O)N4CCCC4)cc32)cc1,1.01,0.176
CC(C)OCCCNC(=O)Cn1nc(Cc2ccncc2)c2ccccc2c1=O,0.941,-1.49
CCCN(CCC)CCCNC(=O)CCN1N=C(c2ccc(OC)cc2)CCC1=O,1.13,2.44
COc1ccccc1-c1nnc(SCC(=O)c2ccccc2)o1,1.05,1.72
# (next part)
SMILES,CBX7 AlphaScr,CBX7 AlphaScr z-score
Cc1cc(Nc2ccc(C)c(C)c2)n2ncnc2n1,1.04,0.609
Cc1ccc(N2CCSC2c2cccs2)cc1 (stereo not given),0.823,-2.43
CCc1ccc(CNC(=O)c2cc(=O)[nH]c3ccccc23)cc1,1.05,2.08
CC1(C)CC(=O)C2=C(C1)N(c1ccc(Cl)cc1)C(=O)CC2c1ccsc1 (stereo not given),1.03,0.306
Cc1ccc(C(C)C)c(OCC(=O)Nc2ccc(-c3nc4ccccc4o3)cc2)c1,1.06,0.961
O=C1CN(C(=O)c2ccccc2F)C(c2ccc(F)cc2)c2cc(F)ccc2N1 (stereo not given),1.03,0.118
Cc1cccc(CN2CCN(CC(=O)NCCCN3CCN(c4ccc(F)cc4)CC3)C2=O)c1,1.02,0.255
Cc1ccccc1OCCn1c(C2CC(=O)N(Cc3ccccc3)C2)nc2ccccc21 (stereo not given),0.838,-1.01
CCC1Oc2ccc(C)cc2N(CC(=O)NC(C)CCc2ccccc2)C1=O (stereo not given),0.932,-1.27
Cc1ccc(C)c(CN2C(=O)CSc3ccc(C(=O)NCc4ccccc4)cc32)c1,1.05,2.09
C#CCn1c(C2CC(=O)N(c3ccc(Br)cc3)C2)nc2ccccc21 (stereo not given),1.2,1.27
COc1ccc(-c2c(C(F)(F)F)oc3c(CN4CCCCC4)c(O)ccc3c2=O)cc1OC,1.11,2.36
CCOc1ccc(-c2cc(C(=O)NCCCOC(C)C)c3ccccc3n2)cc1,1.03,0.644
CCOC(=O)N1CCN(C(=O)CSc2ccc3nnc(-c4ccccc4)n3n2)CC1,0.966,-1.16
CCCCNC(=O)c1cc(=O)[nH]c2ccc(S(=O)(=O)N3CCCCCC3)cc12,1.05,0.527
O=c1[nH]c(-c2cccc3ccccc23)nc2sc3c(c12)CCCC3,1.06,0.951
Cc1ccc(CNC(=O)CCCCCn2c(=O)c3sccc3n(Cc3ccccc3C)c2=O)cc1,0.983,-0.376
CC1CCN(Cc2cc(Cn3ccnc3)c3cccnc3c2O)CC1,0.00606*,-15.7*
OC(CNc1ccccc1)CN1c2ccccc2Sc2ccccc21 (stereo not given),0.747,-7.45
CCc1ccc(NC(=O)c2cc(-c3cccc(Cl)c3)on2)cc1,1.02,0.309
COC(=O)Nc1ccc(S(=O)(=O)NCCc2c[nH]c3ccc(OC)cc23)cc1,0.847,-0.181
O=C(Cn1ncc2c1-c1ccccc1OC2)NCC1CCCO1 (stereo not given),1.05,0.661
Cc1ccc(S(=O)(=O)NCc2ccc3[nH]c4c(c3c2)CCCC4)cc1C,0.842,-2.03
CCOC(=O)c1c(NC(=O)COc2ccc(Cl)cc2)sc(C(=O)N2CCCCC2)c1C,0.976,-1.07
CCCCCC(=O)Nc1ccc(S(=O)(=O)Nc2nccc(/C=C/c3ccc(Cl)cc3)n2)cc1,0.994,-0.0281

# Record cards, from the list above. Order of values: CBX7 AlphaScr	CBX7 AlphaScr z-score
# CCOC(=O)N1CCN(C(=O)CSc2ccc3nnc(-c4ccccc4)n3n2)CC1 in the list: 0.966	-1.16
# CCCCNC(=O)c1cc(=O)[nH]c2ccc(S(=O)(=O)N3CCCCCC3)cc12 in the list: 1.05	0.527

# Next entries
SMILES,CBX7 AlphaScr,CBX7 AlphaScr z-score
CCOC(=O)c1sc2ncn(CC(=O)Nc3ccccc3F)c(=O)c2c1C,1.06,2.29
COc1cc(C2C(=O)N(C3CCCCC3)CC(=O)N2C2CCCCC2)ccc1OC(C)C (stereo not given),1.06,0.889
O=C(Nc1ccc2oc(-c3cccnc3)nc2c1)c1ccc(-c2cccc(OC(F)(F)F)c2)o1,1.03,1.57
c1cncc(CNc2cccc(-c3nc4ccccc4o3)c2)c1,1.03,0.675
O=C(NCCCc1nc2ccccc2[nH]1)c1ccccc1,1.08,0.835
COc1ccc2nc(N3CCOCC3)cc(C)c2c1,1.02,0.581
CCOc1ccc(S(=O)(=O)c2cn(Cc3cccc(OC)c3)c3ccc(OCC)cc3c2=O)cc1,0.909,-3.4
COc1ccc(Nc2nc(C)nc3sc(C)c(C)c23)cc1Cl,0.811,-5.1
O=C(Nc1ccc(Cl)c(Cl)c1)Nc1cccc2cccnc12,0.981,-0.372
CCc1ccc2oc(-c3ccc(C)c(N)c3)nc2c1,0.95,-0.849
CCCSc1nnc(-c2cc(OC)c(OC)c(OC)c2)o1,1.08,1.39
OCC1COC(Cn2cncn2)(c2ccc(Cl)cc2Cl)O1 (stereo not given),0.985&1.13,-0.207&1.29
O=C(NCc1ccc(F)cc1)c1ccc2c(c1)N(Cc1ccccc1)C(=O)c1ccccc1S2(=O)=O,1,0.0813
COc1cccc(OCC(O)CNC(C)c2ccccc2)c1 (stereo not given),0.991,-0.146
COc1ccccc1Nc1ncc(C(=O)N2CCC(C(N)=O)CC2)c2ccccc12,1.23,2.48
Cc1ccc(OCc2nc(-c3ccncc3)no2)cc1C,1.06,0.069
CCCCCc1ccc(-c2ccc(C(=O)Nc3ccc(C(=O)OC)cc3)cc2)nc1,1.07,1.48
COc1ccc(S(=O)(=O)N2Cc3ccccc3CC2C(=O)N2CCCCCC2)cc1OC (stereo not given),0.984,-0.422
CCc1nc(NCC(C)C)c(C#N)c2c1COC(C)(C)C2,0.809,-2.26
CCOC(=O)c1nc2nc(-c3cccs3)cc(C(F)(F)F)n2n1,0.974,-0.647
O=C(NCc1cccc(Cl)c1)c1ccc2c(=O)n(CCc3ccccc3)c(=O)[nH]c2c1,0.973,-0.673
COc1ccc(Nc2ncc(C(=O)Nc3ccc4c(c3)OCCO4)c3ccccc23)cc1,0.953,-0.923
COc1ccc(C(=O)c2cn(Cc3ccc(Cl)cc3)c3cc(OC)c(OC)cc3c2=O)cc1,0.742,-0.909
Cc1ccc(-n2nnnc2SCc2ccccc2Br)cc1C,1.1,0.982
O=c1oc2ccc(Br)cc2cc1-c1csc(Nc2ccccc2)n1,1,0.0189

# 5 compounds drawn at random from those above, as already listed:
SMILES,CBX7 AlphaScr,CBX7 AlphaScr z-score
CCCCCc1ccc(-c2ccc(C(=O)Nc3ccc(C(=O)OC)cc3)cc2)nc1,1.07,1.48
COc1ccc2nc(N3CCOCC3)cc(C)c2c1,1.02,0.581
O=C(NCc1ccc(F)cc1)c1ccc2c(c1)N(Cc1ccccc1)C(=O)c1ccccc1S2(=O)=O,1,0.0813
O=C(NCCCc1nc2ccccc2[nH]1)c1ccccc1,1.08,0.835
CCOC(=O)c1sc2ncn(CC(=O)Nc3ccccc3F)c(=O)c2c1C,1.06,2.29

# Additional results
SMILES,CBX7 AlphaScr,CBX7 AlphaScr z-score
COc1ccccc1C(=O)NC(C)c1nc2ccccc2[nH]1 (stereo not given),1.12,1.53
COc1ccc(S(=O)(=O)N2CCN(c3ccc4nncn4n3)CC2)cc1,1.06,1.09
O=C(CSc1nnc(Cc2cc(=O)[nH]c(=O)[nH]2)n1-c1ccccc1)N1CCCc2ccccc21,1.15,0.627
Cc1cnn(-c2nc(-c3ccc(F)cc3)cc(C(F)(F)F)n2)c1,1.1,2.86
COc1ccc2cc(CCNC(=O)Cc3cccc(C)c3)c(=O)[nH]c2c1,0.984,-0.394
CCCNC(=O)c1ccc2c(c1)N(Cc1cccc(C)c1)C(=O)CS2,0.994,-0.139
c1cncc(Cc2nnc(N3CCC4(CC3)OCCO4)c3ccccc23)c1,1,0.198
Cc1nnc(NC(=O)CSc2nc3ccccc3[nH]2)s1,1.12,1.84
CCN(CCCNC(=O)Cc1c(C(=O)O)[nH]c2ccc(Cl)cc12)c1cccc(C)c1,1.02,0.505
CCOc1cccc(C(=O)Nc2ccc(Cl)c(-c3nc4cc(C)cc(C)c4o3)c2)c1,1.01,0.00909
CCOC(=O)c1cnc2ccc(OCC)cc2c1N1CCN(c2ccccc2F)CC1,0.167*,-0.936*
COC(=O)c1c(-n2cccc2)sc2c1CCN(C(C)=O)C2,1.03,0.71
Cc1ccc(CNC(=O)c2ccc3c(c2)NC(=O)C2CCCN32)cc1 (stereo not given),0.997,-0.0121
Cc1ccc(N(CC(O)CN2CCCCC2)S(=O)(=O)c2ccccc2)cc1 (stereo not given),0.964,-0.415
COc1ccccc1Nc1cc(C(=O)NCc2cccs2)c2ccccc2n1,1.13,3.72
Cc1csc(NC(=O)c2c(-c3c(Cl)cccc3Cl)noc2C)n1,0.916,-0.0991

# Laid out differently: results already given
Compound	CBX7 AlphaScr	CBX7 AlphaScr z-score
CN(C)c1ccc(C(=O)N2CCNc3ccccc3C2)cc1	0.936	-1.15
CC(c1ccccc1)N1CCC(CNC(=O)Nc2ccc(Cl)c(Cl)c2)C1 (stereo not given)	1.13	3.21
